D2 PAM: human D2 receptor positive allosteric modulation; potentiation, % (concentration not given with the values); 360,000 compounds, 0.23% hits; DiscoveRx D2 beta-arrestin cells, luminescence, 90 min; 100% = 57 uM dopamine signal; P14416; active = potentiation of 50% or more; inconclusive = 30% to 50%; inactive = 30% or less;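 also: tested on top of an EC20 dose of dopamine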
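PathHunter D2 cells, attached overnight at 37 deg C, received compound in DMSO plus dopamine at EC20 (50 nM final) for 90 min at 37 deg C. Beta-arrestin recruitment was read as luminescence after 1 h with detection reagent at ambient temperature.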
Six1-Eya2 inh: Six1/Eya2 interaction inhibition | AlphaScreen GST-Six1/His-Eya2 binding, biochemical; hits give low values; control for the full effect not named in the record | 360,000 compounds, 0.56% hits | Q15475+O00167 | activity change, % (concentration not given with the values); in the data active = activity change below about -65%; inconclusive = about -30% to -65%; inactive = above about -30%; also: % is scaled to controls: 0 for no effect and ±100 for the full control effect
Target sequence (O00167 whole entry, looked up): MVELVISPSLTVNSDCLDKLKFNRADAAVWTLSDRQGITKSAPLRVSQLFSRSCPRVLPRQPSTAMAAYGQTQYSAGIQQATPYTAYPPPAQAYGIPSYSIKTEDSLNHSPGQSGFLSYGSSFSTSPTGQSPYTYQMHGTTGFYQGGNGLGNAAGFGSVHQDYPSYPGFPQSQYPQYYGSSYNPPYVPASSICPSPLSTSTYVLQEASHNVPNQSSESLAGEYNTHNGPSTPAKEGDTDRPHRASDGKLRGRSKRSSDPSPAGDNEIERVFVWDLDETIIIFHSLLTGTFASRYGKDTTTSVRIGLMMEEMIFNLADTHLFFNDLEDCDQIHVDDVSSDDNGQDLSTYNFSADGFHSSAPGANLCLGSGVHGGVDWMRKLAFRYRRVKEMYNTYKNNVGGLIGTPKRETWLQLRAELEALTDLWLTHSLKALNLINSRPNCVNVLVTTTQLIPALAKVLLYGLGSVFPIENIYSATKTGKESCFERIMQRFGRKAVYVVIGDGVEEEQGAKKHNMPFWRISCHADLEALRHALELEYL
Target sequence (Q15475 whole entry, looked up): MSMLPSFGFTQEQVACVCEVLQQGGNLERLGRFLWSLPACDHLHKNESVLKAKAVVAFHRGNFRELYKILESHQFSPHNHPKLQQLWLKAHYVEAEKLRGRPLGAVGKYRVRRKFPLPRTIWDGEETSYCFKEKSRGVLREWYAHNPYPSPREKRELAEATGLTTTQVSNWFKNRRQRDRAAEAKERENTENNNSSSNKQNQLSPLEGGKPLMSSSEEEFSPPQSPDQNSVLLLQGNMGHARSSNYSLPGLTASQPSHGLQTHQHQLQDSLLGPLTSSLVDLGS
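AlphaScreen with GST-Six1 and His-Eya2 (5X mix: 250 nM and 500 nM), glutathione donor and nickel acceptor beads; buffer 50 mM Tris pH 8.0, 300 mM NaCl, 1 mM TCEP; 1 h at 37 C in the dark.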
gsp antag: antagonizes gsp, the McCune-Albright syndrome mutation; gsp-mutant cells, cAMP HTRF, 30 min; control for the full effect not named in the record; Potency, µM (titrated, usually from 76.9 µM), for inactives: at the highest dose activity change, negative = inhibition, most hits filed as inhibitors; 340,000 compounds, 0.4% hits; AID 624288; active = falling curve of any shape with a large fitted effect; inconclusive = falling curve, mostly with a smaller effect; inactive = flat or rising curve; cell line not stated here;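 also: intracellular cAMP measured with PDE inhibitor Ro 20-1724 present during compound exposure; potency is read from the fitted curve at half-maximal effect; % is scaled to controls: 0 for no effect and ±100 for the full control effect; nearly all actives have a fitted effect of over 65% in size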
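HTRF cAMP measurement after 30 min RT detection following 30 min, 37C compound treatment alongside […] (added as 300 uM solution) in G418-selected cells seeded at 2000/well and grown 16–24 h.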
gsp agonist: activates gsp, the McCune-Albright syndrome mutation. gsp mutant cells, cAMP HTRF, 30 min; control for the full effect not named in the record. Potency, µM (top dose mostly 76.9 µM), without a hit: at the highest dose activation (cAMP increase), usual class: activators. 340,000 compounds, 0.13% hits. AID 624287; active = well fitted activation curve with a large enough effect; inconclusive = small, poorly fitted or top-dose-only effect, or another doubt; inactive = no such curve, though single readings can be large or run the other way; cell line not stated here;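 also: phosphodiesterase inhibitor Ro 20-1724 added with compounds to block cAMP breakdown; potency is read from the fitted curve at half-maximal effect; nearly all actives have a fitted effect of over 60% in size; about a fifth of the inactives were tested at one dose only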
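Cells stably selected in G418 were plated at 2000/well, grown 16-24 hr, then given compounds in DMSO with the PDE inhibitor […] (300 uM solution added) for 30 min at 37C; cAMP was read by HTRF.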
CtBP-E1A inh: CtBP/E1A binding inhibition | 340,000 compounds, 0.49% hits | AlphaScreen GST-E1A/His-CtBP binding, 1536-well; hits give low values; control for the full effect not named in the record | activity change, % (no concentration beside the values); in the data active means activity change below about -65%; inconclusive means about -30% to -65%; inactive means above about -30%; also: % is scaled to controls: 0 for no effect and ±100 for the full control effect
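Homogeneous bead-based format: GST-tagged E1A captured on glutathione donor beads, His-tagged CtBP on nickel acceptor beads; compounds precede bead addition by 2 h at 37 °C.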
D2 ag: human D2 receptor agonism in beta-arrestin assay; P14416; DiscoveRx PathHunter D2 beta-arrestin, luminescence, 90 min; 100% = 57 uM dopamine signal; activation, % (test concentration not listed); 360,000 compounds, 0.084% hits; AID 624465; in the data active = activation above about 40%; inconclusive = about 15% to 40%; inactive = below about 15%; also: compound concentration not given in the record; the text of the record calls up to 30% inactive
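Agonist mode: compounds alone added to overnight-plated D2 PathHunter cells for 90 min at 37 C, with 57 uM final dopamine (EC100) defining full response. Beta-arrestin recruitment detected by chemiluminescent reagent, read after 1 h at ambient temperature.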
* = called active by the depositor; u = inconclusive; x = no result given; [ ] = dose if it differs, or a comment. No enrichment for hits, and some 1.4% of all compounds hit somewhere here.

SMILES	D2 PAM	Six1-Eya2 inh	gsp antag	gsp agonist	CtBP-E1A inh	D2 ag
CCN(C(=O)CN1CCN(Cc2ccccc2)CC1)c1c(N)n(Cc2ccccc2)c(=O)[nH]c1=O	2.6	5.2	x	6.2%[15.4 µM]	8.2	0.9
O=C(COc1ccccc1)Nc1ccc2[nH]c(=O)[nH]c2c1	-13.8	3.0	5.1%	11.9%	0.7	1.0
COC(=O)c1cc2ccccc2n1S(=O)(=O)c1ccccc1	-3.7	0.9	-5.1%	-1.2%[15.4 µM]	17.7	-3.2
CC1(C)C(=O)C2(CCCCC2)C(=O)OC1c1cccs1 (centres undefined)	-6.9	0.3	6.4%	-11.8%	2.5	-3.0
CC(=O)N1CCN(c2ccccc2NC(=O)COc2ccccc2C)CC1	-9.2	9.5	u	6.6%	-6.0	-3.1
OC(c1ccccc1)(c1ccccc1)C1CCN(C(=S)Nc2ccc(F)cc2)CC1	-3.1	-2.0	-7.8%	0.7%	-20.6	-6.0
Cc1cc(C(=O)NNC(=S)NCC(C)C)cs1	-15.4	16.2	9.6%	-5.7%	2.7	-3.2
CC(=O)N/C(=N\c1nc(C)cc(C)n1)Nc1ccc(Cl)cc1Cl	-6.7	5.3	3.4%	-9.3%[15.4 µM]	-0.4	-3.2
Cc1ccc2c(c1)c1cccc3c1n2CCN3CCC(N)=O	2.6	-20.2	-1.9%	13.5%	-13.4	0.4
O=C(COC(=O)c1ccccc1Cc1ccccc1)Nc1ccc(SC(F)F)cc1	8.6	7.9	-2.4%	-7.5%	18.3	8.1
COc1ccccc1NC(=O)/C(C#N)=C/c1cccnc1	-7.5	6.0	-14.3%	u	0.6	0.1
Cc1ccc(S(=O)(=O)N2CCCCC2)cc1NC(=O)C1CCCO1 (centres undefined)	-11.3	7.6	x	-5.0%[15.4 µM]	-23.2	-5.9
O=C(Cn1cc([N+](=O)[O-])cn1)N1CCc2ccccc2C1	-9.5	8.2	-4.1%	25.6%	x	-2.5
COC(=O)c1ccc(N2C(=O)CC(SCCN)C2=O)cc1 (centres undefined)	3.7	13.9	22.2%	-28.6%	5.0	-0.4
O=C(c1cccc(NS(=O)(=O)c2cccc(F)c2)c1)N1CCCC1	-9.3	3.3	-11.8%	18.8%	6.0	-1.9
Nc1c(C(=O)O)sc2nc3c(cc12)CCCC3	-18.1	9.5	2.5%	u	x	-2.2
C[C@@H]1CN([C@H](C)CO)C(=O)c2cc(Br)cnc2O[C@H]1CN(C)C(=O)c1ccccc1	3.9	17.0	x	-22.1%	17.7	4.6
CCOc1ccc(NC(=O)c2ccc(NC(=O)c3ccc(CN4CCOCC4)cc3)cc2)cc1	-4.8	-1.0	-7.6%	u	-12.0	-2.5
CCCc1ccc2oc(C(=O)N(C)Cc3cnccn3)c(C)c2c1	-9.4	1.3	10.0%	u	-3.6	3.5
Cc1ccc(NC(=O)CSCC(=O)OC(C)C(=O)Nc2ccc(S(N)(=O)=O)cc2)c(C)c1 (centres undefined)	-65.2	3.8	7.4%	-5.9%[15.4 µM]	2.4	-0.5

Quoted from the listing for reference:
SMILES	D2 PAM	Six1-Eya2 inh	gsp antag	gsp agonist	CtBP-E1A inh	D2 ag
CCCc1ccc2oc(C(=O)N(C)Cc3cnccn3)c(C)c2c1	-9.4	1.3	10.0%	u	-3.6	3.5
Cc1ccc(NC(=O)CSCC(=O)OC(C)C(=O)Nc2ccc(S(N)(=O)=O)cc2)c(C)c1 (centres undefined)	-65.2	3.8	7.4%	-5.9%[15.4 µM]	2.4	-0.5

Further structures follow.
SMILES	D2 PAM	Six1-Eya2 inh	gsp antag	gsp agonist	CtBP-E1A inh	D2 ag
CCSc1c(C(=O)NC)ccc2c1C(=O)c1ccccc1C2=O	6.9	-1.0	1.0%	u	-0.8	-1.6
O=C(CCCn1c(=S)[nH]c2ccccc2c1=O)N1CCOCC1	0.2	1.1	11.3%	u	6.0	-1.0
COc1ccc(CNc2nc(-c3cccnc3)nn2S(C)(=O)=O)cc1	4.0	0.0	5.3%	u	6.3	0.4
CN1CCN(CCCNC(=O)c2cn(C)c3ccc(S(=O)(=O)N(C)C)cc3c2=O)CC1	-4.0	-3.6	8.4%	-39.5%[inhibitor]	2.3	-0.6
O=C(Cc1cccs1)Nc1cccc(-c2nc3ccccc3o2)c1	4.4	0.3	8.3%	6.8%	-4.0	2.9
COc1ccc(/C=C/C(=O)O)cc1COc1ccccc1C	6.1	13.2	-6.8%	10.9%	4.6	-1.1
Cn1ccc(C(=O)N/N=C/c2ccccc2[N+](=O)[O-])n1	-6.1	6.5	1.1%	7.1%[15.4 µM]	-1.2	3.3
C/C(CC(=O)NCC(C)C)=N\NC(=O)COc1cc(C)c(Br)cc1Br	-8.7	-5.9	11.0%	-1.8%[15.4 µM]	-11.4	-7.7
Cc1cc(C)n(Cc2cccc(F)c2)c(=O)c1C#N	-4.2	-0.3	-2.3%	-16.8%	1.5	0.4
CC(=O)N/C(=C/c1ccc(OS(=O)(=O)c2ccc(C)cc2)cc1)C(=O)Nc1ccc(C(=O)O)cc1	-4.2	5.7	-2.2%	9.8%[15.4 µM]	4.3	-5.3
CCN1CCc2c(sc(NC(=O)Nc3ccc(Cl)c(Cl)c3)c2C(N)=O)C1	-16.1	14.3	-9.3%	4.1%	27.3	7.4
Cc1cc(C(=O)N/N=C/c2ccc(Cl)c([N+](=O)[O-])c2)c(C)n1-c1ccc(F)cc1	-18.9	-8.4	11.4%	3.3%	-9.1	1.9
C/C(=N/NC(=O)C1COc2ccccc2O1)c1ccc(Br)s1 (centres undefined)	-9.1	2.3	-13.9%	-11.4%[15.4 µM]	6.1	-4.3
Cc1ccsc1C(=O)OC(C)C(=O)Nc1ccc(Cl)cn1 (centres undefined)	-8.7	4.6	-3.3%	13.0%[15.4 µM]	4.1	-5.9
Cc1nnc(SCC(=O)NNC(=O)c2ccco2)s1	-7.7	8.6	-12.1%	2.4%[15.4 µM]	14.7	-4.0
Cc1cc(=O)[nH]c2ccc(S(=O)(=O)NC3CCCCC3)cc12	-6.3	0.0	-8.5%	u	0.0	-2.4
CN1CCN(S(=O)(=O)c2ccc(NC(=S)NC(=O)C3CCCC3)cc2)CC1	-8.3	-1.9	5.6%	-2.4%[15.4 µM]	9.4	-0.7
Cc1noc(C)c1CSCC(=O)Nc1cc(Cl)ccc1N1CCOCC1	-8.5	-1.6	-1.4%	-20.3%	8.2	-5.5
O=C(Nc1cccc2ncccc12)c1ccc(F)cc1	3.9	-0.8	9.2%	11.4%	4.7	-2.2
CCOc1ccc(Nc2ncnc3c2cnn3C)cc1	-3.5	-11.3	-11.6%	-15.4%	0.2	1.5

Reformatted: 15 of the compounds above
Molecule | D2 PAM | Six1-Eya2 inh | gsp antag | gsp agonist | CtBP-E1A inh | D2 ag
CCSc1c(C(=O)NC)ccc2c1C(=O)c1ccccc1C2=O | 6.9 | -1.0 | 1.0% | u | -0.8 | -1.6
O=C(CCCn1c(=S)[nH]c2ccccc2c1=O)N1CCOCC1 | 0.2 | 1.1 | 11.3% | u | 6.0 | -1.0
COc1ccc(CNc2nc(-c3cccnc3)nn2S(C)(=O)=O)cc1 | 4.0 | 0.0 | 5.3% | u | 6.3 | 0.4
CN1CCN(CCCNC(=O)c2cn(C)c3ccc(S(=O)(=O)N(C)C)cc3c2=O)CC1 | -4.0 | -3.6 | 8.4% | -39.5%[inhibitor] | 2.3 | -0.6
O=C(Cc1cccs1)Nc1cccc(-c2nc3ccccc3o2)c1 | 4.4 | 0.3 | 8.3% | 6.8% | -4.0 | 2.9
COc1ccc(/C=C/C(=O)O)cc1COc1ccccc1C | 6.1 | 13.2 | -6.8% | 10.9% | 4.6 | -1.1
Cn1ccc(C(=O)N/N=C/c2ccccc2[N+](=O)[O-])n1 | -6.1 | 6.5 | 1.1% | 7.1%[15.4 µM] | -1.2 | 3.3
C/C(CC(=O)NCC(C)C)=N\NC(=O)COc1cc(C)c(Br)cc1Br | -8.7 | -5.9 | 11.0% | -1.8%[15.4 µM] | -11.4 | -7.7
Cc1cc(C)n(Cc2cccc(F)c2)c(=O)c1C#N | -4.2 | -0.3 | -2.3% | -16.8% | 1.5 | 0.4
CC(=O)N/C(=C/c1ccc(OS(=O)(=O)c2ccc(C)cc2)cc1)C(=O)Nc1ccc(C(=O)O)cc1 | -4.2 | 5.7 | -2.2% | 9.8%[15.4 µM] | 4.3 | -5.3
CCN1CCc2c(sc(NC(=O)Nc3ccc(Cl)c(Cl)c3)c2C(N)=O)C1 | -16.1 | 14.3 | -9.3% | 4.1% | 27.3 | 7.4
Cc1cc(C(=O)N/N=C/c2ccc(Cl)c([N+](=O)[O-])c2)c(C)n1-c1ccc(F)cc1 | -18.9 | -8.4 | 11.4% | 3.3% | -9.1 | 1.9
C/C(=N/NC(=O)C1COc2ccccc2O1)c1ccc(Br)s1 (centres undefined) | -9.1 | 2.3 | -13.9% | -11.4%[15.4 µM] | 6.1 | -4.3
Cc1ccsc1C(=O)OC(C)C(=O)Nc1ccc(Cl)cn1 (centres undefined) | -8.7 | 4.6 | -3.3% | 13.0%[15.4 µM] | 4.1 | -5.9
Cc1nnc(SCC(=O)NNC(=O)c2ccco2)s1 | -7.7 | 8.6 | -12.1% | 2.4%[15.4 µM] | 14.7 | -4.0

(list continues)
SMILES	D2 PAM	Six1-Eya2 inh	gsp antag	gsp agonist	CtBP-E1A inh	D2 ag
O=C1CC(c2nc3ccccc3[nH]2)CN1c1ccccc1F (centres undefined)	-2.3	8.8	-2.4%	24.0%	-3.9	-5.4
Cc1ccsc1C1C(C#N)=C(N)OC2=C1C(=O)CC(C)C2 (centres undefined)	-23.6	-3.2	4.8%	-1.2%	14.5	0.0
Cc1cc(C)nc(N2CCCC(C(=O)Nc3nnc(C)s3)C2)n1 (centres undefined)	-3.2	-0.7	2.2%	14.6%	-10.9	2.0
O=C(C1CCC1)N1CCN(S(=O)(=O)c2ccc(Br)cc2Cl)CC1	-7.5	1.0	-10.6%	-11.0%	-16.9	8.3
COc1ccc(CCC(=O)Nc2ccc(OC)c(S(=O)(=O)N3CCCCC3)c2)cc1	-7.0	3.0	10.1%	-22.1%	x	-2.4
CCc1c(C)nc(N)n2c(SCC(=O)N3CCCC(C)C3)nnc12 (centres undefined)	-7.4	-1.2	1.0%	2.5%	5.4	-3.2
N=C1/C(=C\c2ccc(OC(=O)c3ccccc3)cc2)C(=O)N=C2SC(N3CCOCC3)=NN12	-7.1	-10.5	-3.3%	u	-24.8	-7.6
COc1ccc(C(=O)N2CCN(c3cccc(Cl)c3)CC2)cc1S(=O)(=O)NC1CC1	3.4	2.9	-14.3%	13.4%	2.4	10.7
CCOC(=O)Nc1ccc2c(c1)N(C(=O)OC)c1ccccc1CC2	3.6	2.5	15.9%	-50.4%[inhibitor]	-2.5	-0.3
COc1ccc(C(C)NC(=O)c2cccc([N+](=O)[O-])c2)cc1OC (centres undefined)	-25.5	4.7	5.6%	3.2%	2.5	0.2
O=c1oc2ccccc2n1CSc1nc2ccccc2s1	-24.8	14.9	0.1%	-1.3%	16.7	-2.0
Cn1c2ccccc2c2ncn(Cc3ccc(F)cc3)c(=O)c21	-1.9	-1.2	-1.1%	9.1%	5.9	-1.5
